HSD17B inhib: qHTS Assay for Inhibitors of HSD17B4, hydroxysteroid (17-beta) dehydrogenase 4 | recombinant HSD17B10, NADH fluorescence kinetic; many of its hits are not listed in these tables | 3-hydroxyacyl-CoA dehydrogenase type-2 (Homo sapiens), Q99714 | Potency, µM (doses to about 57.1 µM), for inactives: at the highest dose activity change, negative = inhibition, hits mostly inhibitors | AID 893, 2007 | actives 7.6% (n = 75,000); active = well fitted inhibition curve with a large enough effect; inconclusive = small, poorly fitted or top-dose-only effect; inactive = no such curve, though single readings can be large or run the other way;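 note: the protocol describes HADH2 (HSD17B10) and not the HSD17B4 of the title; nearly all actives have a fitted effect of over 70% in size; most hits overshoot -100% by far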
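His-tagged E. coli-expressed HADH2 at 20 nM in 100 mM Tris-HCl pH 9.0 with 0.01 % Tween-20, preincubated 15 min with compound at room temperature. Reaction with 1 mM NAD+ and 90 uM beta-hydroxybutyryl coenzyme A; NADH fluorescence (360/450 nm) read kinetically over 4 min, last minus first point.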
An asterisk follows results filed as active; ? = inconclusive; [ ] = remark or other dose. % is set by controls: 0 for no effect and ±100 for the full control effect; potency is the fitted concentration of half-maximal effect. Only part of the results is shown. The share of hits here may be higher or lower than overall.

compound | HSD17B inhib
COc1ccc(C)cc1-n1nnnc1SCC(=O)Nc1cc(C)on1 | 2%
Cc1nc2ccccc2c(=O)n1NCc1cc(Br)cs1 | ?
CCN(Cc1ccccc1)S(=O)(=O)c1ccc2oc(C(=O)O)c(C)c2c1 | -7%
CN(C)S(=O)(=O)c1cccc(C(=O)Nc2ccc(Cl)cn2)c1 | 0%
CCCC(=O)NCc1ccc2c(c1)cc(C)n2C | ?
COc1cc(C(=O)Nc2cccc(-c3nc4cc(C)ccc4o3)c2)cc(OC)c1OC | 43%[activator]
CCCn1c(-c2ccc(F)cc2)nc2c(NCC3CCN(C)CC3)nc(C)nc21 | 25µM*
Cc1cc(NC(=O)COc2ccccc2)n(-c2ccccc2)n1 | 12%
CCOc1ccccc1CNC(=O)c1cc2occc2n1C | -4%
COc1ccc(NC(=O)C(C)N(c2ccc(C)cc2)S(C)(=O)=O)c(OC)c1 (stereo not drawn) | -2%
c1ccc(NC(=NCc2ccco2)c2ccccc2)cc1 | 3%
Cc1c(NC(=O)c2ccccc2NS(=O)(=O)c2ccc(F)cc2)c(=O)n(-c2ccccc2)n1C | ?
COc1ccc(CNCCNC(=O)c2ccco2)c(OC)c1OC | -6%
CC(C)CC(=O)Nc1ccc2oc(-c3cccnc3)nc2c1 | 25µM*
CCC(=O)c1ccc(OCCn2cncn2)cc1 | 3%
Cc1ccc(C)c(CSc2nnc([C@@H](N)C(C)C)o2)c1 | -6%
C/C(CCN1CCCc2nc(C)c(C)cc21)=N\O[C@@H](C)CN1CCCCc2nc(C)c(C)cc21 | 4%[11.4 µM]
CCn1c2ccccc2c2cc(C3C(C#N)=C(N)OC4=C3C(=O)CC(C)(C)C4)ccc21 (stereo not drawn) | -9%
O=C(CC1Nc2ccccc2NC1=O)Nc1ccccc1 (stereo not drawn) | 25µM*
CCOc1ccc(OCC)c(NS(=O)(=O)c2cccc3nsnc23)c1 | -17%
CCCCCN=C(C)c1c(O)c2ccccc2oc1=O | -3%
O=C(CSc1nnc(CNc2ccc(Cl)cc2)n1Cc1ccccc1)NCc1ccco1 | -11%
CCCCOc1ccc(Cl)cc1CSc1nncn1N | 2%
COCCCNC(c1ccccc1)c1ccncc1 (stereo not drawn) | 4%
CCOC(=O)c1ncn2c1C(=O)OC2(C)C | 11%
CC(=O)NCCNc1nc(-c2ccccc2C)nc2ccccc12 | 20µM*
Cc1cc(C(=O)CN2C(=O)c3ccccc3C2=O)c(C)n1C1CC1 | -5%
CC(=O)N1CCN(c2ccccc2NC(=O)c2cc(Br)ccc2Cl)CC1 | -4%
Cn1c(C(=O)N2CCN(c3ccc(F)cc3)CC2)cc2c(=O)n(C)c3ccccc3c21 | -3%
Cc1nc(N2CCOCC2)c2nc(-c3ccccc3)n(CCN3CCCCC3)c2n1 | 25µM*
CSC1=C(C#N)C(c2cccs2)CC(=O)N1C (stereo not drawn) | 7%
COc1ccc2c(c1)OC1(C)CC2C(C(=O)c2ccccc2OC)C(=O)N1 (stereo not drawn) | -6%
CSc1oc(-c2ccco2)nc1S(=O)(=O)c1ccc(F)cc1 | ?
CN(c1ccccc1)S(=O)(=O)c1cc(C(=O)c2nccn2C)ccc1Cl | -8%
COC(=O)c1cccc(NC(=O)CN2CCN(c3ccc(OC)cc3)CC2)c1 | 4%
c1ccc2c(c1)CC(N1CCN(c3cccc4c3OCCO4)CC1)C2 | 3%
C[C@@H]1OC(OC2CC[C@@]3(C)C(CC[C@@]4(C)C3CC=C3C5CC(C)(C)CC[C@]5(C(=O)OC5OCC(O)[C@@H](O)[C@@H]5OC5O[C@@H](C)[C@H](O[C@H]6OC(CO)C(O)C(O)C6O)C(O)C5O)C(O)C[C@@]34C)C2(C)C)C(O)C(O)[C@H]1OC1OCC(O)C(O)[C@H]1O (stereo partly drawn) | 9%
Cc1cc(O)cc(O)c1-c1onc(C(F)(F)F)c1-c1cscn1 | 2%
O=C(Nc1ccc2nccnc2c1)c1cnccn1 | -10%
O=Nc1ccc(NO)cc1 | -9%
Cc1cccc2cc(CN(Cc3ccco3)C(=O)NC3CCCCC3)c(=O)[nH]c12 | -18%
Cc1ccc(-c2nc3cc(NC(=O)C(C)C)ccc3o2)cc1C | 32µM*
O=C(OCn1nnc2ccccc2c1=O)c1ccc(Br)o1 | 17%
COc1cc(Cn2c(=O)oc3ccc(C)cc32)ccc1OC(C)C | -13%
NC(=O)C1CCN(C(=O)C2c3ccccc3C(=O)N3CCc4ccccc4C23)CC1 (stereo not drawn) | 8%
COCCNC(=O)C(c1ccc(O)cc1)N(Cc1ccco1)C(=O)CCC(=O)Nc1nccs1 (stereo not drawn) | 4%
CCN1C(=O)c2cccc3c(S(=O)(=O)Nc4ccccc4OC)ccc1c23 | 3%
Cc1cc2cc(CNC(=O)Nc3ccccc3)ccc2n1C | -7%
CC(C)Cn1c(N)c(C(=O)COC(=O)c2cc(-c3ccccc3)nc3ccccc23)c(=O)n(C)c1=O | 25µM*
O=C1c2ccccc2C(=O)N1C1(C(=O)NC2(C(=O)O)CCCC2)CCCC1 | 0%[11.4 µM]
CC(C)C[C@H](NC(=O)OC(C)(C)C)c1nnc(SCC(=O)Nc2ccc(Br)cc2)o1 | 9%
CCOc1ccc(CNC(=O)CCn2c(=O)oc3ccccc32)cc1OC | -4%
O=C(CSc1nc(N2CCCCC2)nc(N2CCCCC2)n1)Nc1nccs1 | 14%
CCOc1ccc(N(CC(=O)NC(C)CC)S(=O)(=O)c2c(C)noc2C)cc1 (stereo not drawn) | 5%
COc1cc(Cl)cc(C2NC(=O)NC(C)=C2C(=O)NCc2ccccc2)c1O (stereo not drawn) | 8%
Cc1c(C(=O)OCCOc2ccccc2)[nH]c2c1C(=O)CCC2 | -25%
CC1Cc2c(-c3ccccc3)nc3c(c2CO1)CN(CCOc1ccccc1)CC3 (stereo not drawn) | 2%[11.4 µM]
O=C(Nc1ccc(Nc2ccccc2)cc1)c1ccc(Br)o1 | -8%
Cc1ccccc1-c1nnc(SCC(=O)NC2CCCCC2)o1 | 2%
O=c1[nH]c2ccccc2nc1C(F)(F)C(F)F | 25µM*

Rewritten with each value named: 4 of the compounds above.
CCCCOc1ccc(Cl)cc1CSc1nncn1N
  HSD17B inhib: 2%

COCCCNC(c1ccccc1)c1ccncc1 (stereo not drawn)
  HSD17B inhib: 4%

CCOC(=O)c1ncn2c1C(=O)OC2(C)C
  HSD17B inhib: 11%

CC(=O)NCCNc1nc(-c2ccccc2C)nc2ccccc12
  HSD17B inhib: 20µM*

Entries from the list above that contain a cyano group (2):
compound | HSD17B inhib
CCn1c2ccccc2c2cc(C3C(C#N)=C(N)OC4=C3C(=O)CC(C)(C)C4)ccc21 (stereo not drawn) | -9%
CSC1=C(C#N)C(c2cccs2)CC(=O)N1C (stereo not drawn) | 7%

Next compounds follow:
compound | HSD17B inhib
NC(=O)C1CCN(C2CC(=O)N(c3cccc(F)c3)C2=O)CC1 (stereo not drawn) | -6%
COc1ccc(Br)cc1CNC(=O)C1CCN(S(=O)(=O)N2CCCC2)CC1 | 9%
CCC(C)C(NC(=O)C1CCC(C)CC1)C(=O)NCc1cccnc1 (stereo not drawn) | 5%
COc1cccc(C(=O)N2CCN(Cc3ccco3)CC2)c1OC | -1%
CC(=O)C(Sc1nc(NC(C)(C)C)nc(N(C)C)n1)C(C)=O | -6%
COc1cccc(NC(=O)N2CCOCC2)c1 | 1%
C/C(N)=C(/C#N)C(=O)COC(=O)COc1ccc(Cl)cc1 | 0%
CC(c1ccco1)N(C(=O)CSc1ccc(Br)cc1)c1ccccn1 (stereo not drawn) | -16%
CCCn1c(=S)[nH]c2cc(C(=O)NCC3CCCO3)ccc2c1=O (stereo not drawn) | -3%
Cc1ccc(-c2c(C)n([O-])c3c([n+]2=O)CCC3)o1 | -15%
N#Cc1ccccc1OCC(=O)OCC(=O)c1ccc2c(c1)NC(=O)CO2 | 8%
O=C(NCCN1CCOCC1)c1cc2sccc2n1Cc1ccc(Cl)cc1 | -2%
Cn1nnnc1SCC(=O)N1CCN(c2ccccc2)CC1 | -9%
O=C(O)c1ccc(NS(=O)(=O)c2cc(Cl)ccc2Cl)cc1O | ?
OCc1csc(=Nc2ccccc2)n1-c1ccccc1 | -1%
CCCn1c(SCC(=O)N2CCc3ccccc3C2)nc2c1c(=O)n(C)c(=O)n2C | -1%
COc1ccc(C(c2nnnn2C2CCCC2)N2CCC(C(N)=O)CC2)c(OC)c1 (stereo not drawn) | -15%
COc1cccc(NC(=O)CN2CCN(c3ccc(F)cc3)CC2)c1 | 7%
CCOC(=O)c1cc(C(C)(C)C)oc1CN | 1%
O=C(NCCN1CCCCC1)Nc1ccc(F)c(Cl)c1 | -12%
Cc1cc(C)n(CCc2nc3c4ccccc4n(CC(=O)Nc4ccc(Cl)cc4F)c(=O)n3n2)n1 | 14%
COc1ccc(CCNC(=O)C2CCCN(Cc3nc(-c4ccccc4C)oc3C)C2)cc1OC (stereo not drawn) | -5%
Cn1cccc1Cc1nnc(SCC(=O)Nc2nccs2)n1CCc1ccccc1 | ?
COC(=O)CNC(=O)Cn1ccc2ccccc2c1=O | -11%
COc1c2occc2c(OC)c2c(=O)cc(C(F)(F)C(F)(F)F)oc12 | 2%
Cn1c(=O)[nH]c(=O)c2[nH]c(CN3CCN(C(=O)c4ccco4)CC3)nc21 | 0%
CN(C)CCC[C@@H]1c2ccccc2Oc2ccc(C(F)(F)F)cc21 | 1%[11.4 µM]
CC(=O)OC[C@@H]1O[C@H](CCO/N=C(\C)CCN2CCc3nc(-c4ccccc4)c(-c4ccccc4)cc3C2)C=C[C@@H]1OC(C)=O | -1%[11.4 µM]
Cc1cccnc1NC(=O)C1CCN(S(=O)(=O)c2ccc3c(c2)CCC(=O)N3)CC1 | 4%
CCSc1nc(C)nc2c1oc1ccccc12 | -23%
COc1ccccc1CN1CCC2(CC1)CCN(C(=O)c1ccncc1)CC2 | 5%
COc1ccc(CC(=O)NCc2ccccc2Cl)cc1S(=O)(=O)N1CCOCC1 | 2%
COc1cc2c(Cc3c4c5c(cc(OC)c(OC)c5c5c(OC)c(OC)ccc35)CCN4C)c3c4c(cc(OC)c(OC)c4c2cc1OC)CCN3C | 16µM*
NC1=NCc2ccccc21 | 3%
Cc1ccccc1Cn1c2ccccc2c2cn[nH]c(=O)c21 | -7%
COC(=O)c1ccc(C2CC(=O)NC3=C2C(=O)CCC3)cc1 (stereo not drawn) | -23%
CN1CCN(S(=O)(=O)c2ccc(NC(=O)c3ccc(F)cc3)cc2)CC1 | -11%
COC(=O)[C@@]1(Cc2ccccc2)[C@H]2c3cc(C(=O)N(C)C)n(Cc4cc(C)n(C)n4)c3C[C@H]2CN1C(=O)c1ccccc1 | 0%
OCCNCC1(O)C2CC3CC(C2)CC1C3 (stereo not drawn) | 6%
Cc1ccc(Cl)cc1NC(=O)c1ocnc1C | -9%
Cc1ccc2cc(CN(Cc3nnnn3Cc3ccco3)CC3CCCO3)c(=O)[nH]c2c1C (stereo not drawn) | -19%
Cc1nnc2sc(-c3ccc(NC(=O)c4ccc(-c5ccc(Br)cc5)o4)cc3)nn12 | 25µM*
CCN(CC)S(=O)(=O)c1cccc(C(=O)Nc2ccccc2C(=O)N2CCOCC2)c1 | -4%
CCOc1ccc(NC(=O)C2CCN(C(=O)NCc3ccccc3)CC2)cc1 | 8%
O=C(c1cccs1)N1CCN(Cc2nc3ccccc3c(=O)[nH]2)CC1 | 5%
COc1ccc(C)cc1N | 0%
CCN(CC)CCN1C(=O)c2oc3ccccc3c(=O)c2C1c1ccc(F)cc1 (stereo not drawn) | -1%
CC(C)c1nc(N2CCN(C(=O)c3ccccc3)CC2)c(C#N)c2c1COC(C)(C)C2 | 5µM*
CC1(C)Cc2cccc(OCC(=O)Nc3nccs3)c2O1 | 12%
Cn1c(SCC(=O)Nc2cc(=O)n(C)c(=O)n2C)nnc1-c1cccs1 | -7%
O=C1c2ccccc2C(=O)N1CC(O)COCc1ccccc1 (stereo not drawn) | 6%
O=C(NCc1ccccc1)c1c[nH]c2ccc(S(=O)(=O)Nc3ccc4c(c3)OCCO4)cc2c1=O | -11%
COc1ccc(-c2cc(C(=O)N3CCN(Cc4ccccc4)CC3)no2)cc1OC | -2%
CC(=O)OCCn1c(=O)c2cc3c(=O)n(CCOC(C)=O)c(=O)c3cc2c1=O | -6%
O=C(Nc1nncs1)c1ccccc1NS(=O)(=O)c1cccs1 | 25µM*
CCOC(=O)C1CCN(C(c2cc(OC)c(OC)c(OC)c2)c2sc3nc(C)nn3c2O)CC1 (stereo not drawn) | ?
c1ccc2n[nH]nc2c1 | -2%
Cc1ccc(C)c(NC(=O)CNS(=O)(=O)c2ccccc2)c1 | -3%
COc1cc(O)c2c(=O)cc(C)oc2c1CC=C(C)C | 0%

Bioassay records as filed in PubChem BioAssay.
